Compound activity from PubChem.
KCNQ2 inh – KCNQ2 channel blockers in CHO-K1 cells – cell-based, FluxOR thallium flux, B-score, primary screen (AID 2156); B-score at 10 µM; O88943; hit rate 1.1% among 310,000; 20 min; stronger effect = lower value; only compounds with negative scores are shown here; some inactives read as strong as hits;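 active = fluorescence ratio B-score at most minus 3 library SDs, with starting brightness B-score within 2 library SDs, cut at about -5.5 in these data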
Target sequence (O88943 whole entry, looked up): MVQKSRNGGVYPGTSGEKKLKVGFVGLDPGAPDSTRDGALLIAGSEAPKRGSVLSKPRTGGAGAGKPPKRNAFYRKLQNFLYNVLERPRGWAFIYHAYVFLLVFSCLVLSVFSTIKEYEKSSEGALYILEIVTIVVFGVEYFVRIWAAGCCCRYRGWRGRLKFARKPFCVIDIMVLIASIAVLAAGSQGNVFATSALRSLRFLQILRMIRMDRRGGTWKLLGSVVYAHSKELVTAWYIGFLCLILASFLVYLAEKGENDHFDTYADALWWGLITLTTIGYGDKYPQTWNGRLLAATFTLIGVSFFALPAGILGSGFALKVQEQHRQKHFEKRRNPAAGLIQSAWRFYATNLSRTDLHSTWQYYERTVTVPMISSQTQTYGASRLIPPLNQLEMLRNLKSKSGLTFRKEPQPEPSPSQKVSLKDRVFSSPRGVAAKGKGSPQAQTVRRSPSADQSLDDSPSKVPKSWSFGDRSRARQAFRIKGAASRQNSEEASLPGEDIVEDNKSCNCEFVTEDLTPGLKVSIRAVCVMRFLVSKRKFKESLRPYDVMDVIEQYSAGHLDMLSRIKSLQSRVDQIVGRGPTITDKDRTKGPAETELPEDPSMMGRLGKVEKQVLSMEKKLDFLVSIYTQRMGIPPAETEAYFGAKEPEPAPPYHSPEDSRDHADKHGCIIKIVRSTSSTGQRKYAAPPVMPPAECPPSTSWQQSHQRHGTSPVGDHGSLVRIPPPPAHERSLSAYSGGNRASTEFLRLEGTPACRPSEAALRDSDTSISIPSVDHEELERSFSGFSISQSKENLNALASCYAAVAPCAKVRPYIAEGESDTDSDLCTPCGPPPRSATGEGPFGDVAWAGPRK
KCNQ2 inh baseline – also measured in KCNQ2 inh; calls as there; B-score; measured here: initial fluorescence intensity artifact check;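 brightness before thallium and not channel activity; 0 = typical well and far values either way flag optical interference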
An asterisk follows results filed as active; i = inactive.

SMILES	KCNQ2 inh	KCNQ2 inh baseline
CCc1c(O)cc(=O)n(-c2ccccc2)c1-c1ccccc1	i	-1.5
COc1ccc(-c2c(-c3ccsc3)oc3ccc(N4CCOCC4)cc23)cc1	i	-0.32
COc1cc(NC(=O)C(=O)N2CCN(C)CC2)c(OC)cc1Cl	i	1.7
O=C(Cn1cnc(S(=O)(=O)N2CCOCC2)c1)Nc1ccc(OC(F)(F)F)cc1	i	-0.42
COC(=O)c1c(NC(=O)CN2CCCc3ccccc32)sc(C)c1C	-7.7*	3.1*
CC1CCN(S(=O)(=O)c2cc([N+](=O)[O-])ccc2Cl)CC1	i	0.38
c1ccc(CNc2nc(NCc3ccco3)nc(N3CCOCC3)n2)cc1	i	-1.8
COc1ccccc1NC(=O)C1CCCN(c2cnccn2)C1 (configuration not stated)	i	0.98
CC(=O)Nc1ccc(N(C(=O)c2ccco2)C(C(=O)NC2CCCCC2)c2ccccc2)cc1 (configuration not stated)	i	0.62
S=c1[nH]c2cc3c(cc2[nH]1)OCCO3	i	-0.12
O=C(Nc1ccc(/C=C/c2nc3ccccc3o2)cc1)c1c(F)cccc1F	i	-0.19
O=C(O)CC/C(=C\c1cc([N+](=O)[O-])ccc1Cl)c1nc2ccccc2s1	i	-2.7
O=C(NC(=S)NCCC1=CCCCC1)c1cncc(Br)c1	i	0.54
COc1ccccc1C(CNC(=O)CCNC(=O)c1ccccc1Cl)N1CCCC1 (configuration not stated)	i	2.9
O=C(Nc1ccc(O)c2c(=O)cc(-c3cccc(Cl)c3)oc12)c1ccc(F)cc1	i	1.7
Cc1cc(C(=O)NN=C(Cc2ccccc2)Cc2ccccc2)c(C)o1	i	-1.5
CC(C)(C)NC(=O)NC(=O)CN1CCCc2ccccc21	i	0.22
Cc1cc(-c2ccc3ccccc3c2)n2ncnc2n1	i	2.2
COc1ccc(C(=O)OCC(=O)Nc2cccc(C(C)=O)c2)c(OC)c1OC	i	0.71
O=C(Cn1cnc2sc3c(c2c1=O)CCCC3)NCC(=O)Nc1c(F)cc(F)cc1Br	i	-0.41
COc1ccccc1C(c1nnnn1C1CCCC1)N1CCN2CCCC2C1 (configuration not stated)	i	0.31
O=C(CSc1nnc(SCc2ccc(Cl)cc2)s1)c1ccc2c(c1)OCO2	i	1.4
Cc1ccc(NS(=O)(=O)c2cc(C(=O)N3CCOCC3)ccc2C)cc1C	i	-0.6
Cc1ccc2c(c1)N(CC(=O)NC1CCCC1)C(=O)CO2	i	0.67
CC(=O)c1cccc(NC(=O)c2cc(C)nn2-c2ccccc2)c1	i	-2.2
CC(=O)Nc1cccc(C(=O)/C=C/c2ccc(Br)cc2)c1	i	0.77
CC(Sc1nc(N2CCOCC2)c2c(c1C#N)CC(C)(C)OC2)C(=O)O (configuration not stated)	i	-0.25
Cc1cc(C)n2nc(-c3ccco3)nc2n1	i	0.05
COc1ccc(CCNC(=O)COC(=O)/C=C/c2ccc(OCC#N)c(OC)c2)cc1	i	-0.55
Cc1ccc(C)c(S(=O)(=O)C(C#N)c2nc3ccccc3nc2N2CCOCC2)c1 (configuration not stated)	i	0.68
CCOc1ccc(C(=O)Nc2c(C(=O)N3CCC(N4CCCCC4)CC3)oc3ccccc23)cc1	i	0.07
Cc1cccc(/C=N\Nc2cn[nH]c(=O)c2Cl)c1	i	2.8
CN(C)S(=O)(=O)N1CCCC(C(=O)c2ccc(C(F)(F)F)cc2)C1 (configuration not stated)	i	0.91
OC(c1ccccc1)(C1CCCCC1)C(CN1CCOCC1)c1ccccc1 (configuration not stated)	-5.7*	1.6*
O=C(CSc1nc(-c2ccc(F)cc2)cs1)Nc1ccccn1	i	1.2
Cc1c(Cl)cccc1NC(=O)CSc1nnc(C)n1CC1CCCO1 (configuration not stated)	i	1.2

Whole records as entered above. Order of values: KCNQ2 inh	KCNQ2 inh baseline
`OC(c1ccccc1)(C1CCCCC1)C(CN1CCOCC1)c1ccccc1` (configuration not stated) is listed with -5.7*	1.6*
`COc1ccc(CCNC(=O)COC(=O)/C=C/c2ccc(OCC#N)c(OC)c2)cc1` is listed with i	-0.55

Structural class, those above containing a CF3 group.
SMILES	KCNQ2 inh	KCNQ2 inh baseline
O=C(Cn1cnc(S(=O)(=O)N2CCOCC2)c1)Nc1ccc(OC(F)(F)F)cc1	i	-0.42
CN(C)S(=O)(=O)N1CCCC(C(=O)c2ccc(C(F)(F)F)cc2)C1 (configuration not stated)	i	0.91

Carrying on.
SMILES	KCNQ2 inh	KCNQ2 inh baseline
O=C(Nc1cccnc1Cl)C1=NN(c2ccccc2)C(=O)CC1	i	1.6
O=C(Nc1ccc(CN2CCOCC2)cc1)c1cc(Cl)ccc1Cl	i	-1.2
O=C1C=C(N2CCOCC2)C2(CCCCC2)O1	i	3
COc1ccc(-c2csc3nc(-c4ccccc4F)oc(=O)c23)cc1	i	0.78
COc1ccc(NC(=O)c2ccccc2NS(=O)(=O)c2ccc(CNC(C)=O)cc2)c(OC)c1	i	-0.8
COCc1nnc(NC(=O)c2ccc(S(=O)(=O)N3CCCC3)cc2)o1	i	-1.4
Cc1cccc(NC(=O)N2CCN(Cc3ccccc3)CC2)c1	i	0.57
COc1ccc(Cc2nc3ccc(C(=O)NCC4COCCO4)cc3o2)cc1OC (configuration not stated)	i	0.82
Cc1ccc(C(=O)N2CC(C)OC(C)C2)cc1[N+](=O)[O-] (configuration not stated)	i	0.46
Cc1cccc(SCc2noc(C(=O)NCC3CCCO3)c2C(=O)O)c1 (configuration not stated)	i	0.86
Cc1ccc(-n2nnnc2SCC(=O)Nc2ccccc2N2CCCCC2)cc1C	i	-0.42
CC(NC(=O)c1cc(-c2ccc3c(c2)OCO3)nc2ccccc12)C(C)(C)C (configuration not stated)	i	-2.2
CN(C(=O)c1cc2c(s1)-c1ccccc1S(=O)(=O)C2)c1ccccc1F	i	0.6
CCC(=O)N1CCN=C1SCc1ccc(Cl)cc1	i	-2.4
COc1ccc(CCNS(=O)(=O)c2c(C)nc3scc(C)n3c2=O)cc1OC	i	1
CCc1ccccc1NC(=S)N=Nc1c(O)n(C)c2ccc(S(=O)(=O)N3CCOCC3)cc12	i	-0.09
O=C1OC(c2ccccc2)/C(=C(/O)c2ccccc2)C1=O (configuration not stated)	i	-0.51
CCc1nc2c(c(=O)[nH]1)C1(CCCC1)Cc1ccccc1-2	i	1.2
CCCCC1NC(=S)N(C2CCCCC2)C1=O (configuration not stated)	i	0.69
CC(=O)N1c2ccc(S(=O)(=O)N3CCC(C(=O)N4CCN(c5ccccc5)CC4)CC3)cc2CC1C (configuration not stated)	i	0.01
N/C(=N\OC(=O)CCCOc1ccccc1)c1cccc([N+](=O)[O-])c1	i	1.5
COc1ccc(NC(=S)NNC(=O)C(C)n2nc(C)c([N+](=O)[O-])c2C)cc1 (configuration not stated)	i	3.3
O=S(=O)(O)c1cccnc1SCc1ccccc1	i	-0.11
Cc1cccc(-c2cc3c(N=O)c4ccccc4c-3n[nH]2)c1	i	-0.84
N#CC1=C(S)N=C(N)C(c2nc(-c3ccccc3)cs2)C12CCCC2 (configuration not stated)	i	-0.27
O=C(/C=C/Nc1ccc(F)cc1Br)c1ccccc1	i	-1
O=C(Cn1cnc2c(nnn2-c2ccccc2)c1=O)NCC1CCCO1 (configuration not stated)	i	0.27
CCN(CC)S(=O)(=O)c1ccc(C(=O)NC2=C(C(=O)OC)SCC2)cc1	i	0.59
Cc1ccc(NC(=O)CCN2C(=O)c3ccccc3Sc3ncccc32)cc1	i	-2.8
CC(C)(C)c1cc(C(=O)O)n(Cc2ccc(Cl)cc2Cl)n1	i	-0.13
COc1cccc(/C=C/c2n[nH]c(=O)c(C#N)c2C)c1	i	-0.44
Cc1cc(C)cc(NC(=O)COC(=O)CCc2ccc(S(=O)(=O)N3CCOCC3)cc2)c1	i	1.9
CC1(C)CC(NS(=O)(=O)c2ccc(S(N)(=O)=O)cc2)CC(C)(C)N1	i	1.9
COCCCN(C(=O)c1ccco1)c1nc(-c2ccc(OC)cc2)cs1	i	-1.9
COc1ccc(NC(=O)CCNC(=O)C2CCN(S(=O)(=O)c3ccc(OC)cc3)CC2)cc1	i	0.57
CC(C)C(=O)N1CCC(Cc2ccccc2)CC1	i	0.88
Cc1[nH]c(=O)[nH]c(=O)c1N1CCOCC1	i	-1.1
O=C(Nc1ccccc1N1CCN(C(=O)c2ccc(Cl)cc2)CC1)c1cccc(F)c1	i	1.1
COc1ccc(C2CC(=O)c3c([nH]c(C(=O)OC(C)C)c3C)C2)cc1OC (configuration not stated)	i	1.6
Cc1cccc(C)c1NS(=O)(=O)c1ccc(-c2ccc(=O)[nH]n2)o1	i	0.24
COC(=O)c1ccc(/C=N\N2CCN(c3ccccc3)CC2)cc1	i	-0.04
Clc1ccc(C2[C@H]3CN(Cc4ccc(-c5ccccc5)cc4)[C@H](c4ccccc4)C34CC2(c2ccccc2)C4)cn1 (some centres not stated)	i	-0.95
Cc1nc2c(C)cccc2cc1C(=O)N/N=C/c1ccc(N(C)C)cc1	i	-0.69
CSCCC(C(=O)NC1=NCCS1)N1C(=O)c2ccccc2C1=O (configuration not stated)	i	0.47
O=c1oc2c(O)cccc2cc1-c1nc2ccccc2[nH]1	i	31
COc1ccc(CN2CN(C(C)C)CSC2=S)cc1	i	0.98
CN1CC=C2C(C#N)=C(N)C(C#N)(C#N)[C@H](c3cccc(Cl)c3)C2C1 (some centres not stated)	i	8.5
Clc1ccc(OCCCN2CCCC2)cc1Cl	i	-2.4
Cc1c(N(C(=O)CNC(=O)c2ccccc2)C2(C(=O)NC3CCCC3)CCCCC2)c(=O)n(-c2ccccc2)n1C	i	-2.1
COc1ccc(-n2c(CN3CCN(c4ccccc4)CC3)nc3ccc([N+](=O)[O-])cc3c2=O)c(OC)c1	i	0.17
CC(NC(=O)c1ccc(Cl)cc1)C1CC2CCC1C2 (configuration not stated)	i	-0.67
CC1CN(C(=O)CCC(=O)NCc2ccc(Cl)cc2)c2ccccc2O1 (configuration not stated)	i	2.8
C=CCN1CC(O)=C(c2nc3ccccc3[nH]2)C1=N	i	1.6
Cc1cc(C)c(NC(=S)N(C)C)c(C)c1	i	0.94
COc1ccccc1N(CC(=O)NCCSCc1ccccc1Cl)S(C)(=O)=O	i	0.74
COc1cccc(C(=O)N2CCOCC2)c1OC	i	-0.79
Cc1c(C)n2c(SCC(=O)N3CCOCC3)nnc2[nH]c1=O	i	-0.08
CCOCCCNC(=O)C1c2ccccc2C(=O)N2CCc3ccccc3C12 (configuration not stated)	i	0.52
COc1ccc(CNC(=O)[C@H](C)N2C(=O)N3CCc4c([nH]c5ccc(OC)cc45)[C@@]3(C)C2=O)cc1	i	2.1
CCOc1c(OC)cccc1C1CC(=O)Nc2cc3c(cc21)OCCO3 (configuration not stated)	i	-0.05

(cont.)
SMILES	KCNQ2 inh	KCNQ2 inh baseline
Cc1cc(-c2ccccc2)nc(Cl)c1C#N	i	1.3
COc1ccc(NC(=O)C(Sc2nnc(-c3ccncc3)n2-c2ccccc2C)c2ccccc2)cc1Cl (configuration not stated)	-5.5*	-0.5*
O=C(NCCc1cccc(Cl)c1)c1ccc(OC2CCN(Cc3ccccn3)CC2)cc1	i	0.35
CN(CC(=O)Nc1ccccc1C(F)(F)F)Cc1c(O)ccc2ccccc12	i	-0.16
O=C(/C=C(/c1ccc(Cl)cc1)n1cncn1)c1ccccc1	i	-1.9
Cc1ccc(C)c(Cn2c(C(C)O)nc3ccccc32)c1 (configuration not stated)	i	-0.54
COc1ccc(CCC(=O)O)cc1OC	i	-0.16
COc1ccc(S(=O)(=O)N2CCOCC2)cc1NC(=O)CSc1nnc(N)s1	i	-0.25
CCCn1c(SC(C(=O)Nc2cc(C)ccc2OC)c2ccccc2)nc2ccccc2c1=O (configuration not stated)	i	0.27
CCc1c(C)c(C#N)c2nc3ccccc3n2c1N1CCN(c2cc(C)ccn2)CC1	i	0.42
NS(=O)(=O)c1ccc(CNC(=O)COc2ccc3c4c(c(=O)oc3c2)CCCC4)cc1	i	0.72
Cc1[nH]c2ccc3ccccc3c2c(=O)c1C/C=C/Cl	i	1.9

Arranged by value in KCNQ2 inh baseline (high to low): five of the compounds above
structure | KCNQ2 inh | KCNQ2 inh baseline
O=C(NCCc1cccc(Cl)c1)c1ccc(OC2CCN(Cc3ccccn3)CC2)cc1 | i | 0.35
CCCn1c(SC(C(=O)Nc2cc(C)ccc2OC)c2ccccc2)nc2ccccc2c1=O (configuration not stated) | i | 0.27
COc1ccc(CCC(=O)O)cc1OC | i | -0.16
COc1ccc(S(=O)(=O)N2CCOCC2)cc1NC(=O)CSc1nnc(N)s1 | i | -0.25
O=C(/C=C(/c1ccc(Cl)cc1)n1cncn1)c1ccccc1 | i | -1.9

(continued)
SMILES	KCNQ2 inh	KCNQ2 inh baseline
CN1CCN(C(=O)N(c2ccccc2)c2ccccc2)CC1	i	0.06
O=C(CN1C(=O)C2(OCCO2)c2cc(Br)ccc21)NO	i	4.1
COc1ccc(C2OC(=O)CC2C(=O)NCc2ccc(C)cc2)cc1OC (configuration not stated)	i	-0.57
COc1ccc(OCC(=O)Nc2ccc3c(c2)nc(CN2CCN(C(C)=O)CC2)n3C)cc1	i	-1.9
OCCOCCn1c(CCNc2nc(-c3ccc(Cl)cc3)cs2)nc2cc(Cl)c(Cl)cc21	i	1
CC1(C)C(=S)N(Cc2ccccc2)c2ccccc21	-6.6*	2.5*
O=C(CCCCn1c(=O)[nH]c2ccccc2c1=O)NCCC1=CCCCC1	i	0.35

A portion of the library, so the mix of outcomes need not match the whole.
